Rce1 inhib: blocks yeast Ras-converting enzyme; yeast membranes, quenched prenylated peptide cleavage fluorescence; hit rate 0.27% among 290,000; calls only;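 active = fall in fluorescence gain of 50% or more versus controls, with final raw signal at or below 3038400; inconclusive = same 50% fall but final raw signal above 3038400; inactive = fall in fluorescence gain under 50%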;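 also: plate controls were neutral control wells for no effect and wells lacking membranes for full effect; tested at 10 µM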
Target sequence (Q03530 whole entry, looked up): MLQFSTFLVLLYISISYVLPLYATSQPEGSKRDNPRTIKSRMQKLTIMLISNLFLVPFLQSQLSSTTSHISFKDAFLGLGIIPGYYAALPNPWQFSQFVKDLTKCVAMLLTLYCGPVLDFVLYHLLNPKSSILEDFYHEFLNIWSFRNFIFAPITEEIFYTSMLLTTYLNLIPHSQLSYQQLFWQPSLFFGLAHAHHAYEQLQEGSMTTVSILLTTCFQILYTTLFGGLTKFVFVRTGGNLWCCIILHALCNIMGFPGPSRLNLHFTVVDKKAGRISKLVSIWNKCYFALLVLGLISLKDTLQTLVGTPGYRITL
MT1-MMP act inh: MT1-MMP (human) activation inhibition; HT1080 RFP-PRO-GFP cells, GFP/RFP ratio fluorescence, overnight; percent of plate control window, DMSO zero; GFP/RFP ratio change, % at 20 µM; hit rate 0.061% among 360,000; AID 651647;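 active = GFP/RFP ratio change of at least 30% with cell ATP level not reduced by more than half and red fluorescence within 50% of control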; also: strong numbers were not always called active
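Assay system – RFP-PRO-GFP reporter HT1080 cells · Compound dosing – single dose of 20 µM compound, 1% DMSO final · Incubation – overnight compound exposure at 37 °C · Measure – GFP/RFP fluorescence ratio · Benchmarks – DMSO wells and RFP-L50D-GFP cells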
CSC inhib: cancer stem cell inhibition | cancer stem cell-like cells viability, luminescence | inhibition, % at 7.5 µM | hit rate 1.1% among 300,000 | AID 2717;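 active = mean at 75% or more and at least half the replicates too; inconclusive = mean and replicates disagree; tested in HMLE shEcad cells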;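 also: 0% = median of negative and 100% = median of positive control wells; the first replicate is given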
eIF4H FP inh: inhibitors of RNA binding by human eIF4H; eIF4H fluorescence polarization binding assay; hit rate 0.94% among 290,000; inhibition, % at 35 µM;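 active = 50% or more with normal probe brightness, or confirmed in later tests; inconclusive = above 50% with abnormal brightness, or retests that disagree; inactive = below 50% or failed in later tests; about a fifth of its hits are not listed in these tables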;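 also: calls also rest on retests at 20 µM and on dose response follow-up; 0% = protein and probe with vehicle and 100% = probe without protein; strong numbers were not always called active; many hits fall short of the cut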
UUG fidelity: alters start codon recognition fidelity in yeast; AID 602363; activity score, % at 18.7 µM; S. cerevisiae UUG-firefly luciferase reporter, luminescence/redox ratio; hit rate 0.13% among 350,000;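 active = replicate mean at a twofold rise or more, about +100% in these data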;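 also: firefly luciferase made from a UUG start codon reports start codon fidelity; reporter light over untreated wells divided by growth signal over untreated wells; some hits fall short of that in this replicate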
HIV Env fusion: blocks HIV Env-driven cell-cell fusion; AID 651610; HeLa-JRFL Env/CEM21 cell fusion, luciferase; inhibition, % at 12.3 µM; hit rate 1.1% among 360,000;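 active = mean replicate inhibition score of at least 50 and every replicate individually at or above 50; inconclusive = only one of the two criteria met; inactive = mean below 50 and not all replicates reaching 50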;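 also: 0% = plate neutral controls and 100% = maraviroc near 300 nM; one replicate is shown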
PABP polyA inh: blocks human PABP binding to poly(A) RNA | P11940 | fluorescence polarization | inhibition, % at 35 µM | hit rate 1% among 290,000 | AID 2014;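 active = 50% or more with normal probe brightness, or confirmed in later tests; inconclusive = above 50% with abnormal brightness, or retests that disagree; inactive = below 50% or failed in later tests; about a fifth of its hits are not listed in these tables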;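 also: calls also rest on retests at 20 µM and on dose response follow-up; controls were probe without protein and protein plus probe with vehicle; some compounds called inactive have numbers as strong as hits; many hits fall short of the cut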
eIF4H FP inh retest: recorded beside eIF4H FP inh, whose call it bears; inhibition, %; compound at 20 µM; confirmation average;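 mean of two retest wells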
PABP polyA inh retest: second read-out of PABP polyA inh, no call of its own (marks repeat the call); inhibition, %; compound at 20 µM; confirmation repeats;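 mean of two retest wells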
MT1-MMP act inh RFP: recorded beside MT1-MMP act inh, whose call it bears; RFP signal change, %; measured here: RFP expression control read;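 0 = vehicle wells; hits needed this value within 50% of zero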
The depositor's hits bear a star; i = inactive; ? = inconclusive; · = not tested or not shown; & = joins results of further samples; [ ] = dose if it differs, or a comment. Not all compounds are listed; the hit share may differ from the screen's.

SMILES	Rce1 inhib	MT1-MMP act inh	MT1-MMP act inh RFP	CSC inhib	eIF4H FP inh	UUG fidelity	HIV Env fusion	PABP polyA inh	others
CCN1C(=O)C(O)(C2COC(C)(C)CC2=O)c2cc(Br)ccc21 (configuration not stated)	i	-13	2	36	-4	-6	-61	-8
C=CCNC(=O)c1onc(CS(=O)(=O)c2cc(C)cc(C)c2)c1C(=O)NCC=C	i	-2	-4	-17	·	-14	12	·
COc1cc(CN2CCCC(C(=O)Nc3cccc(-n4cccn4)c3)C2)ccc1F (configuration not stated)	i	2	1	2	-7	-3	11	-18
COc1ccc(S(=O)(=O)N(C)CC(=O)O)c2ccccc12	i	0	3	3	1	-11	-19	19
Cc1[nH]nc(SCC(=O)NC2CCCC2)c1[N+](=O)[O-]	i	-1	2	-12	8	·	0	0
Cc1ccc(NC(=O)CN(C)C(=O)c2sc3cc(Cl)ccc3c2Cl)cc1	i	0	1	2	·	·	-2	·
COc1ccc(N(C(=O)C2CSC(=O)C2)C(C(=O)NC(C)(C)C)c2ccncc2)cc1 (configuration not stated)	i	1	3	-17	-12	·	14	-9
CCn1c(/C=C/N(C(C)=O)c2ccccc2)[n+](CC)c2ccc(Cl)cc21	i	-4	-3	6	10	-13	·	2
Cc1ccc(C(c2sc3ncnn3c2O)N2CC(C)CC(C)C2)cc1 (configuration not stated)	i	3	5	16	-10	-6	-46	-5
NC(=O)CSc1nccn1Cc1ccc2c(c1)OCO2	i	-3	1	-11	-11	-13	-3	7

Entries above with an aryl thioether with sulfur outside any ring (2):
SMILES	Rce1 inhib	MT1-MMP act inh	MT1-MMP act inh RFP	CSC inhib	eIF4H FP inh	UUG fidelity	HIV Env fusion	PABP polyA inh	others
Cc1[nH]nc(SCC(=O)NC2CCCC2)c1[N+](=O)[O-]	i	-1	2	-12	8	·	0	0
NC(=O)CSc1nccn1Cc1ccc2c(c1)OCO2	i	-3	1	-11	-11	-13	-3	7

More records:
SMILES	Rce1 inhib	MT1-MMP act inh	MT1-MMP act inh RFP	CSC inhib	eIF4H FP inh	UUG fidelity	HIV Env fusion	PABP polyA inh	others
CC(C)(C)NC(=O)Cn1nnc(-c2ccccc2Cl)n1	i	2	0	0	-3	14	-34	-4
Cn1nnnc1SCc1cc(=O)n2ccsc2n1	i	1	4	-2	1	-13	·	4
N/C(=N\OC(=O)COc1ccc(Cl)cc1Cl)c1ccccn1	i	-1	-3	48	-8	·	-29	-10
C[C@H](CO)N1C[C@H](C)[C@@H](CN(C)CC2CC2)Oc2c(NS(=O)(=O)c3ccc(F)cc3)cccc2C1=O	·	4	8	·	·	0&1	5[16.7 µM]	·
C=CCNC(=S)NNC(=O)c1csc(CC)c1	i	-1	1	-8	2	·	·	4
COc1ccc(OC)c2sc(NC(=O)C3=COCCO3)nc12	i	7	6	1	-4	-1	1	-10
COc1ccc(-c2cc(C(=O)Nc3ccccc3N3CCOCC3)c3ccccc3n2)cc1OC	i	-12	-13	40	0	-16	24	-3
COCc1cccc(-c2csc(C(C)(O)c3cccc(F)c3)n2)c1 (configuration not stated)	·	-7	-12	·	·	-6	5	·
CC(C)N(C(=O)Cn1c(Cl)nc2ccccc21)C(C)C	i	2	-2	-13	0	-19	-6	3
CCOc1ncccc1C(=O)NCc1ccccc1	i	·	·	-6	12	·	·	-7
CCOc1cc([N+](=O)[O-])cc2c1C(=O)Nc1ccccc1O2	i	-56	-2	-14	?	-1	-1	10
O=C(CCc1ccccc1)Nc1ccnn1C1CCN(Cc2ncc[nH]2)CC1	i	-1	1	-17	6	-3	-13	6
CNC[C@H](CC1CCCCC1)NC[C@H](Cc1ccccc1)NCCC12CC3CC(CC(C3)C1)C2	i	-43	-25	-18	-8	-3	93*	-32
CC1(C)CC(=O)c2c(nc3ccccc3c2N)C1	i	2	0	-12	6	-10	·	0
CC(NC(=O)c1ccc(F)cc1)c1ccc2c(c1)CCCC2 (configuration not stated)	i	1	-8	-1	-1	·	·	-6
Cc1cc(C)nc(SCCCn2c(=O)[nH]c3ccccc32)n1	i	6	4	-7	-2	-3	-19	-4
C/C(N)=C(/C#N)C(=O)CSc1nn(-c2ccc(Cl)cc2)c(=S)s1	i	-1	0	64	-1	·	-10	-7
O=C(NCC(c1cccs1)N1CCOCC1)c1ccccc1NS(=O)(=O)c1cc([N+](=O)[O-])ccc1Cl (configuration not stated)	i	-2	-3	17	-10	·	6	-11
O=C(CN1C(=O)C2CCCCC2C1=O)OCn1nnc2ccccc2c1=O (configuration not stated)	i	0	-2	-13	-5	·	8	-8
C=CCc1cc(C=O)cc(OC)c1OCc1ccc(Cl)cc1	i	-5	-6	9	-5	0	·	-3
CCc1ccccc1N(CC(=O)N1CCc2ccccc2C1)S(C)(=O)=O	i	-1	1	4	7	-6	-8	10
COc1ccc(NS(=O)(=O)c2ccc(NC(=O)C(CCSC)NC(N)=O)cc2)cc1 (configuration not stated)	i	-2	0	-29	-2	·	1	-6
Cc1ccc(-c2nnc(Nc3ccc(C(N)=O)cc3)c3ccccc23)cc1S(=O)(=O)NCC1CCCO1 (configuration not stated)	i	7	2	21	1	·	11	-4
O=C(CSc1nccn1-c1ccccc1)c1ccc(Br)cc1	i	-4	-4	45	8	-17	·	3
COc1ccc(/C=N/NC(=O)c2cccnc2)cc1	i	5	0	-13	-2	-18	17	2
CCN(CC)S(=O)(=O)c1cc(NC(=O)C(C)N2CCN(Cc3ccc4c(c3)OCO4)CC2)ccc1C (configuration not stated)	i	-1	-14	35	2	10	·	-9
COC(=O)C1=C(CS(=O)(=O)c2ccccc2)NC(=O)NC1c1ccccc1 (configuration not stated)	i	2	1	-9	-4	-15	0	1
O=C(c1ccc(Cl)cc1)C1CCCN(Cc2ccc(Oc3ncccn3)cc2)C1 (configuration not stated)	i	-1	5	14	1	-1	-1	-5
COc1ccc(C(=S)N2CCOCC2)cc1OC(=O)c1ccc([N+](=O)[O-])cc1[N+](=O)[O-]	i	4	4	-5	1	4	17	2
CC(C)(C)c1ccccc1NC(=O)c1ccc2c(c1)SC1=NS(=O)(=O)CCN12	i	0	0	-7	6	·	-3	-2
CC(=O)Nc1ccc(S(=O)(=O)N2CCN=C2SCc2ccc(C)cc2)cc1	i	4	-7	-9	-7	4	·	-5
Cc1nonc1NC(=O)Nc1cccnc1	i	1	5	-3	3	·	-351	1
O=S(=O)(Nc1nc2ccccc2nc1NCCO)c1cccc(Cl)c1	i	0	2	-5	3	17	22	19
Nc1nonc1C(=O)N1CCCCC1	i	0	2	-7	-11	-6	0	15
COc1ccc(C(=O)C2CCCN(Cc3cn[nH]c3-c3ccccc3)C2)cc1OC (configuration not stated)	·	-1	4	-6	3	-7	5	-4
CSCCC(NC(=O)COc1ccccc1)C(=O)N1CCCCCC1 (configuration not stated)	·	-5	-2	·	·	0	6	·
CCC1=C2CC[C@H]3C(=O)N(c4ccccc4)C(=O)[C@H]3[C@H]2[C@@]2(C)C(=NCc3ccccc3)OC(=O)N2C1=O	i	-1	4	7	-4	-16	9	1
Cc1nc2nc(C)c(NS(=O)(=O)c3ccc(C4CCCCC4)cc3)c(=O)n2[nH]1	i	1	2	·	-5	-3	0	8
CCCc1cc(=O)[nH]c(SCC(=O)c2cc(C)n(CC3CCCO3)c2C)n1 (configuration not stated)	·	3	-5	-6	·	-19	·	·
O=C(CN1CCN(c2ncccn2)CC1)NCc1ccccc1	i	2	0	-23	-1	-17	·	10
NC(=O)c1ccc(NC(=O)CSC(=O)c2ccccc2)cc1	·	0	1	-19	·	-13	·	·
CSc1ncc(C(=O)Nc2ccccc2F)c(-c2ccccc2)n1	i	-4	-2	9	-8	-13	5	1
COc1cccc(N2C(=O)CC(N3CCN(C(=O)c4ccco4)CC3)C2=O)c1 (configuration not stated)	i	-1	-1	-8	-11	·	-55	-6
Cc1ccccc1CSCCNC(=O)COc1ccc(Cl)cc1	i	3	1	-12	-2	-13	-2	13
Cc1ccc(Oc2ncccc2COC(=O)Nc2ccccc2C)cc1	i	-5	1	-3	15	-20	23	9
COc1cccc(Cn2nnc(C(=O)Nc3cc(C)ccc3OC)c2N)c1	i	3	2	61	-3	-15	·	1
C=CCN(CC=C)CCOc1cccc(Oc2ccccc2)c1	i	2	2	25	-1	·	22	12
COc1ccccc1NC(=O)Nc1ccc2c(c1)nnn2C	i	3	4	-7	2	-20	·	0
COC(=O)c1ccc(NC(=S)N2CCC(C(N)=O)CC2)cc1	i	3	7	-11	2	-2	12	-1
O=C(Oc1cccc(N2C(=O)CCC2=O)c1)C1CC(=O)N(c2ccc(F)cc2)C1 (configuration not stated)	i	4	3	-7	-5	1	·	-1

Next part; the last five above are carried over.
SMILES	Rce1 inhib	MT1-MMP act inh	MT1-MMP act inh RFP	CSC inhib	eIF4H FP inh	UUG fidelity	HIV Env fusion	PABP polyA inh	others
COc1cccc(Cn2nnc(C(=O)Nc3cc(C)ccc3OC)c2N)c1	i	3	2	61	-3	-15	·	1
C=CCN(CC=C)CCOc1cccc(Oc2ccccc2)c1	i	2	2	25	-1	·	22	12
COc1ccccc1NC(=O)Nc1ccc2c(c1)nnn2C	i	3	4	-7	2	-20	·	0
COC(=O)c1ccc(NC(=S)N2CCC(C(N)=O)CC2)cc1	i	3	7	-11	2	-2	12	-1
O=C(Oc1cccc(N2C(=O)CCC2=O)c1)C1CC(=O)N(c2ccc(F)cc2)C1 (configuration not stated)	i	4	3	-7	-5	1	·	-1
Cc1ccc(SCCNC(=O)c2ccccc2)cc1	i	2	0	-2	3	-8	-68	11
Cc1ccccc1-c1cccc([C@@H]2C[C@H]3[C@H](CON3C)CN2C(=O)C(C)(C)C)c1	·	1	3	·	·	32	-7	·
CCCCn1nc(NC(=O)CC(C)C)c2cc3cc(OC)ccc3nc21	i	2	1	3	-6	-7	-19	1
COc1ccccc1N1CCN(C(=O)CSc2nc(-c3ccccc3)cc(=O)[nH]2)CC1	i	6	4	-3	6	-7	·	90	eIF4H FP inh retest=-2;PABP polyA inh retest=10
O=C1/C(=C/c2cccnc2)Oc2cc(OS(=O)(=O)c3ccc(F)cc3)ccc21	i	3	-10	·	0	-25	·	-1
CN(Cc1ccccc1)C(=O)c1csc(COCCO)n1	·	2	5	·	·	-8	2	·
CNC(=S)NNC(=O)c1sccc1OCc1ccc(C)cc1	i	8	-1	-6	3	-1	3	6
COc1cc(SC)ccc1C(=O)OCC(=O)N1CCN(C(C)=O)CC1	i	-5	-1	-16	·	-16	-10	·
Cc1nc2ccc(S(=O)(=O)Nc3ccccc3C)cc2s1	i	-1	-4	40	9	·	·	-4

Structures listed so far with a nitro group on carbon (four):
SMILES	Rce1 inhib	MT1-MMP act inh	MT1-MMP act inh RFP	CSC inhib	eIF4H FP inh	UUG fidelity	HIV Env fusion	PABP polyA inh	others
Cc1[nH]nc(SCC(=O)NC2CCCC2)c1[N+](=O)[O-]	i	-1	2	-12	8	·	0	0
CCOc1cc([N+](=O)[O-])cc2c1C(=O)Nc1ccccc1O2	i	-56	-2	-14	?	-1	-1	10
O=C(NCC(c1cccs1)N1CCOCC1)c1ccccc1NS(=O)(=O)c1cc([N+](=O)[O-])ccc1Cl (configuration not stated)	i	-2	-3	17	-10	·	6	-11
COc1ccc(C(=S)N2CCOCC2)cc1OC(=O)c1ccc([N+](=O)[O-])cc1[N+](=O)[O-]	i	4	4	-5	1	4	17	2

High-throughput results: PubChem BioAssay, several laboratories
